StopGo reporter: High Throughput Screening for Foot and Mouth Disease Virus Antivirals | 410,000 tested, 1.2% active | human cells with a luciferase reporter of 2A StopGo recoding; control for the full effect not named in the record | Potency, µM (titrated, usually from 57.9 µM), without a hit: top-dose signal change, negative = less light | AID 1159524, 2015; active = well fitted falling curve with a large enough effect; inconclusive = small, poorly fitted or top-dose-only effect; inactive = no such curve, though single readings can be large or run the other way; tested in HEK293T cells; also: % is scaled to controls: 0 for no effect and ±100 for the full control effect; nearly all actives have a fitted effect of over 45% in size; luciferase light after 4 h
NS1 function inh: qHTS Assay for Inhibitors of Influenza NS1 Protein Function; S. cerevisiae slowed by influenza A NS1, growth recovery by OD600; Potency, µM (doses to about 46.1 µM), without a hit: top-dose activity, positive = more growth; 270,000 tested, 0.4% active; active means well fitted rising curve with a large enough effect; inconclusive means small, poorly fitted or top-dose-only effect; inactive means no such curve, though single readings can be large or run the other way; also: nearly all actives have a fitted effect of over 50% in size
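Read-out: OD600 growth recovery of NS1-expressing budding yeast. Cells grown overnight at 30C in -URA glucose medium, washed, resuspended and diluted 1:100 in 2% galactose assay medium, pH 6.0. Same strain lacking NS1 served as positive control.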
Cruzain Triton: qHTS Assay for Promiscuous and Specific Inhibitors of Cruzain (with detergent) | Cruzipain (Trypanosoma cruzi), P25779 | 200,000 tested, 0.43% active | purified cruzain, Z-FR-AMC fluorescence, 0.01% Triton | Potency, µM, for inactives: max response, negative = inhibition, usual class: inhibitors;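 also: plate controls were neutral wells for no effect and buffer without enzyme for full effect; nearly all actives have a fitted effect of over 40% in size; top concentration of the series not given in the record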
Target sequence (P25779 123-467 limits assumed): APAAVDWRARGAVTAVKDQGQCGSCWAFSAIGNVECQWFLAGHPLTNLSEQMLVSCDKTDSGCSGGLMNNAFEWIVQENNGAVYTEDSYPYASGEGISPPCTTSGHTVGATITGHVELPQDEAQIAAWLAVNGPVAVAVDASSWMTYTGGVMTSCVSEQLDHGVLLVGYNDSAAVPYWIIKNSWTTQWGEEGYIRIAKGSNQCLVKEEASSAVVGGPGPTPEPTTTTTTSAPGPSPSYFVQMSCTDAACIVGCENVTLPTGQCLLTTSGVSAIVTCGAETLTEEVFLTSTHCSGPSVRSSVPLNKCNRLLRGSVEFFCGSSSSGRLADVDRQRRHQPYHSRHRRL
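Detergent-containing run (0.01% Triton X-100) in acetate buffer pH 5.5 with 5 mM DTT: enzyme at 1.5 nM final, 15 min compound preincubation at room temperature, then 2 uM Z-FR-AMC substrate. Activity taken as 60 s fluorescence increase at 360/450 nm.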
RE007 growth inh: qHTS Assay for Inhibitors of the HIV-1 protein Vpr | S. pombe RE007 Vpr strain, BacTiter-Glo ATP luminescence, 24 h; control for the full effect not named in the record | 360,000 tested, 0.21% active | Potency, µM (highest dose often 92.2 µM), for the others: at the top dose activity change, negative = less growth | AID 651644, 2012; active = well fitted falling curve with a large enough effect; inconclusive = small, poorly fitted or top-dose-only effect; inactive = no such curve, though single readings can be large or run the other way;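 also: % is scaled to controls: 0 for no effect and ±100 for the full control effect; nearly all actives have a fitted effect of over 50% in size; the assay follows cell death caused by Vpr and the record does not say whether a fall means rescue or toxicity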
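Fission yeast strain RE007, carrying one chromosomally integrated HIV-1 vpr copy, was seeded at OD 0.01 in PMG+AL medium with 23 nL pinned compound. After 24 h at 30 °C and 99% humidity, viability was read by BacTiter-Glo luminescence.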
SARS PLP yeast: qHTS of Yeast-based Assay for SARS-CoV PLP. S. cerevisiae expressing SARS-CoV PLpro, growth rescue; control for the full effect not named in the record. Potency, µM (top dose mostly 32.9 µM), without a hit: at the highest dose activity, positive = growth rescue. 330,000 tested, 0.19% active; active means well fitted rising curve with a large enough effect; inconclusive means small, poorly fitted or top-dose-only effect; inactive means no such curve, though single readings can be large or run the other way; also: 0% is about no effect; nearly all actives have a fitted effect of over 55% in size; growth read by luminescence after 48 h
LASV entry inh: qHTS for Inhibitors of binding or entry into cells for Lassa Virus; 300,000 tested, 1.2% active; Lassa virus pseudotype entry inhibition, cell reporter; control for the full effect not named in the record; AID 540256, 2011; Potency, µM (top dose mostly 37.9 µM), without a hit: top-dose activity change, negative = inhibition, hits mostly inhibitors; active means well fitted inhibition curve with a large enough effect; inconclusive means small, poorly fitted or top-dose-only effect, or effect the other way; inactive means flat fitted curve, though single readings scatter; tested in HEK293 cells; also: % is scaled to controls: 0 for no effect and ±100 for the full control effect; nearly all actives have a fitted effect of over 50% in size; luciferase read-out
Cruzain noTriton: qHTS Assay for Promiscuous and Specific Inhibitors of Cruzain (without detergent). Cruzipain (Trypanosoma cruzi), P25779. purified cruzain, Z-FR-AMC fluorescence, no detergent. Potency, µM, inactives show max response, negative = inhibition, hits mostly inhibitors. 200,000 tested, 2.3% active;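 also: plate controls were enzyme without inhibitor for no effect and buffer without enzyme for full effect; nearly all actives have a fitted effect of over 40% in size; top concentration of the series not given in the record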
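Purified cruzain at 1.5 nM, pre-incubated 15 min with compound at room temperature in 100 mM sodium acetate pH 5.5, 5 mM DTT, 0.00005% Triton X-100. Reaction started with 2 uM Z-FR-AMC; AMC fluorescence increase over 60 s gives rate.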
MARV entry inh: qHTS for inhibitors of binding or entry into cells for Marburg Virus; Marburg virus pseudotyped entry inhibition, cell reporter; control for the full effect not named in the record; about a third of the inactives were read at about 46 µM; Potency, µM (doses to about 37.8 µM), without a hit: top-dose activity change, negative = inhibition, hits mostly inhibitors; 300,000 tested, 1.8% active; active = well fitted inhibition curve with a large enough effect; inconclusive = small, poorly fitted or top-dose-only effect, or effect the other way; inactive = flat fitted curve, though single readings scatter; tested in HEK293 cells; about a fifth of its hits are not listed in these tables; also: % is scaled to controls: 0 for no effect and ±100 for the full control effect; luciferase read-out
The depositor's hits bear a star; u = inconclusive; x = not tested or not shown; [ ] = dose if it differs, or a comment. Unless noted, calls follow the shape of the dose curve; as a rule, active = well fitted curve in the direction sought with a large enough effect; inconclusive = small, poorly fitted or top-dose-only effect, or another doubt; inactive = no such curve, though single readings can be large; an effect the other way counts as inactive or inconclusive. Potency is read from the fitted curve at half-maximal effect.

SMILES	StopGo reporter	NS1 function inh	Cruzain Triton	RE007 growth inh	SARS PLP yeast	LASV entry inh	Cruzain noTriton	MARV entry inh
CC(C)c1ccc(OC(=O)c2cc(-c3ccc(Cl)cc3)on2)cc1	1%	x	-0.1%	x	x	10%[46.1 µM]	-1%	-8%[46.1 µM]
O=c1oc2cc([N+](=O)[O-])ccc2nc1/C=C(\O)c1cccc(Br)c1	4%	0%	x	14%	0%	9%	x	-4%
CS(=O)(=O)c1ccc(C(=O)NCC(c2ccco2)N2CCCCC2)cc1 (configuration not stated)	-1%	x	x	-5%	1%	u	x	-27%[46.1 µM]
CC(=O)Nc1ccc(-c2ccccc2)s1	-5%	4%	5.7%	1%	1%	-6%	5%	u
CCc1nc2ccccc2c(C(=O)OCC(=O)NCc2ccco2)c1C	-19%	-17%	-4.7%	27%	-3%	17%	-3%	u
CC1CCCN(C(=O)CNC(=O)c2ccco2)C1 (configuration not stated)	0%	12%	x	18%	4%	x	x	x
CCOC(=O)C1(CCOc2ccccc2)CCN(Cc2cc(OC)ccc2OC)CC1	u	3%	x	2%	-1%	x	x	x
O=C1C2ON(c3ccccc3)C(c3ccncc3)C2C(=O)N1c1ccccc1 (configuration not stated)	18%	6%	1.2%	5%	0%	-1%	7%	18%
O=C(Nc1ccc2c(c1)OCCO2)C(=O)NC1CC1	18%	0%	x	-4%	0%	-11%[46.1 µM]	x	u
COc1ccccc1CN1CC(C(=O)NCc2cccc(Cl)c2)CCC1=O (configuration not stated)	10%	-2%	x	-4%	u	x	x	x
CC1(C)CC(c2nc(-c3ccccc3)cs2)CCS1 (configuration not stated)	-14%	-2%	-5.3%	-2%	-17%	u	-4%	6%[46.1 µM]
COc1ccc2c(c1)c1nc3ccccc3nc1n2CCn1c(=O)oc2ccccc21	-19%	6%	2.5%	2%	0%	17%	-6%	u
Clc1ccc(/C=N/Nc2ncnc3ccccc23)cc1Cl	-5%	-28%	-10%	11%	6%	4%	0%	u
COc1cccc(-n2cc(C(=O)O)c3ccccc3c2=O)c1	x	-7%	-2.9%	-5%	4%	16%	-7%	1%
COCCn1c(SCC(=O)c2ccc3c(c2)OCCO3)nnc1C(C)C	7%	-21%	-0.5%	-19%	3%	-5%	-14%	-12%
COc1cccc(CNc2ccc3[nH]c(=O)[nH]c3c2)c1OCc1ccccc1F	-28%	3%	x	-2%	-5%	x	x	x
Cc1ccc(S(=O)(=O)NNC(=S)NCC2CCCO2)cc1 (configuration not stated)	-27%	-3%	x	6%	-5%	8%[46.1 µM]	x	u
CCOc1ccc(/C=N/NC(=O)c2ccc(F)cc2)cc1CN1CC2CC(C1)c1cccc(=O)n1C2 (configuration not stated)	u	x	x	2%	1%	x	x	2%
O=C(N/N=C/c1ccc2ncccc2c1)c1cccc([N+](=O)[O-])c1	15%	-6%	x	-10%	6%	-28%	x	8%[46.1 µM]
CCc1cccc(CC)c1NC(=O)COc1ccccc1C(=O)c1cc(C#N)c(=O)n(C2CCCCC2)c1	-16%	-4%	-3.6%	-24%	9%	u	5%	u
CSc1ccccc1C(=O)C1CCCN(C(=O)CCN2CCCO2)C1 (configuration not stated)	67%[activator]	-2%	x	16%	-1%	16%[46.1 µM]	x	-3%[46.1 µM]
COc1ccc2[nH]cc(/C=C(/C#N)S(=O)(=O)c3ccccc3)c2c1	-2%	9%	-6.6%	10%	-24%	-10%	-2%	u
Cc1cccc(NC(=O)CSc2cn(CC(=O)N3CCCCCC3)c3ccccc23)c1	-2%	x	-2.3%	x	x	26%[46.1 µM]	-1%	x
COc1ccc2c(=O)c(C(=O)NCCc3ccc(OC)c(OC)c3)c[nH]c2c1	u	-2%	-3.7%	10%	1%	u	u	7.3µM*
Cc1ccc(-c2csc(=Nc3ccccc3)n2Cc2ccc3c(c2)OCO3)cc1	-18%	x	-4.5%	x	x	1%[46.1 µM]	u	u
CCN(CC)CCNC(=O)c1ccc(-c2nc(CN3CCc4ccccc43)c(C)o2)cc1	u	x	-1.8%	x	x	-3%[46.1 µM]	-3%	x
Cc1ccc(C)c(-n2c3nc(=O)n(C)c(=O)c-3cc3ccccc32)c1	-18%	-5%	x	10%	0%	x	x	x
CC(/C=N/NC(=O)CSc1nnc(SCc2ccccc2)s1)=C\c1ccco1	3%	u	-11%	2%	1%	-3%	0%	1%
Cc1ccc(Cl)cc1NC(=O)C1CCCN(S(=O)(=O)c2c(C)noc2C)C1 (configuration not stated)	u	-2%	-2.9%	-8%	3%	-3%	-3%	-16%
CCc1ccccc1NC(=O)Nn1cnnc1	-10%	2%	x	13%	-3%	4%[46.1 µM]	x	0%[46.1 µM]
CCCOc1c(OC)cc(Cl)cc1C1NC(=O)NC(C)=C1C(=O)NCc1ccccc1 (configuration not stated)	-12%	1%	7.7%	8%	12%	-21%[14.3 µM]	-9%	-24%
NC(=O)C1CCCN(CC(=O)N2CCN(c3ccccc3)CC2)C1 (configuration not stated)	9%	7%	x	-2%	-1%	3%	x	-1%[46.1 µM]
Cc1ccc2c(c1)cc1c(=O)n(CC(=O)NCCCc3ccccc3)nc(C)n12	-13%	14%	x	1%	2%	x	x	x
O=[N+]([O-])c1ccc(S(=O)(=O)NCCc2ccncc2)cc1	40%[activator]	x	x	4%	3%	-27%[46.1 µM]	x	7%[46.1 µM]
Cc1ccc(-c2nn(CC(=O)NN3CCOCC3)c(=O)c3ccccc23)cc1	-12%	0%	x	2%	0%	x	x	x
CC(=O)Nc1ccc(S(=O)(=O)Nc2c(C)nn(-c3ccccc3)c2C)cc1	x	7%	2.8%	3%	0%	-18%	-2%	u
Cc1c(C(=O)Nn2cnnc2)oc2ccccc12	6%	7%	1.9%	12%	0%	8%	16%	3%[46.1 µM]
COC(=O)c1nn(-c2ccccc2)c(Cl)c1/C=N/OCc1ccc(Cl)cc1Cl	-9%	-2%	-3.4%	-3%	8%	2%	2%	5%
Cc1ccc(S(=O)(=O)N2CCOC2CNC(=O)C(=O)NCc2ccncc2)cc1 (configuration not stated)	1%	2%	x	-13%	-2%	10%	x	6%[46.1 µM]
COc1ccc(C2C(C(=O)O)CCC(=O)N2c2ccc(OC)cc2)cc1 (configuration not stated)	x	0%	5.6%	-14%	3%	7%	1%	-7%
COc1ccc2oc(=O)c(NC(=O)C3CCCCC3)cc2c1	17%	2%	1.3%	-1%	6%	4%	-1%	13%
COC(=O)c1ccc(C2C(C#N)=C(C)NC3=C2C(=O)CC(C)(C)C3)cc1 (configuration not stated)	-9%	-9%	-11%	2%	-1%	-6%	9%	-8%
CC(Sc1nnc(-c2ccc(OC(F)F)cc2)n1N)C(=O)NCC1CCCO1 (configuration not stated)	-12%	x	x	-2%	-2%	17%	x	-1%
COc1cc(C2NC(=O)NC(c3ccccc3)=C2C(C)=O)cc([N+](=O)[O-])c1O (configuration not stated)	1%	0%	x	-2%	0%	x	x	x
CCOC(=O)N1CCN(CC(O)COc2ccc(OC)cc2C(C)(C)C)CC1 (configuration not stated)	-25%	-6%	2.6%	0%	-5%	u	19%	u
COc1ccccc1OCCOCCn1cnc2ccccc2c1=O	8%	-7%	2.7%	-4%	2%	-13%	-4%	3%
C=CCNC(=O)CSc1nc2sc(C)c(C)c2c(=O)[nH]1	-12%	u	-3.0%	6%	7%	4%	-8%	u
CC1Cc2ccccc2N1C(=O)Cn1c(=O)cc(O)c2ccccc21 (configuration not stated)	u	12%	2.9%	6%	1%	-7%	3%	-3%
Cc1ccc2c(c1)c(N=O)c(O)n2Cc1ccc(Cl)cc1	-7%	-57%	x	28%	-5%	u	x	3%[46.1 µM]
Cc1cc(C)cc(NC(=O)NCCn2nnc3cc(S(=O)(=O)N(C)C)ccc32)c1	8%	x	0.5%	x	x	3%[46.1 µM]	0%	x

Arranged by length of the SMILES (lowest first): 5 of the compounds above.
SMILES	StopGo reporter	NS1 function inh	Cruzain Triton	RE007 growth inh	SARS PLP yeast	LASV entry inh	Cruzain noTriton	MARV entry inh
COc1ccccc1OCCOCCn1cnc2ccccc2c1=O	8%	-7%	2.7%	-4%	2%	-13%	-4%	3%
COc1ccc2oc(=O)c(NC(=O)C3CCCCC3)cc2c1	17%	2%	1.3%	-1%	6%	4%	-1%	13%
Cc1ccc2c(c1)c(N=O)c(O)n2Cc1ccc(Cl)cc1	-7%	-57%	x	28%	-5%	u	x	3%[46.1 µM]
CC(Sc1nnc(-c2ccc(OC(F)F)cc2)n1N)C(=O)NCC1CCCO1 (configuration not stated)	-12%	x	x	-2%	-2%	17%	x	-1%
COC(=O)c1ccc(C2C(C#N)=C(C)NC3=C2C(=O)CC(C)(C)C3)cc1 (configuration not stated)	-9%	-9%	-11%	2%	-1%	-6%	9%	-8%

Next results
SMILES	StopGo reporter	NS1 function inh	Cruzain Triton	RE007 growth inh	SARS PLP yeast	LASV entry inh	Cruzain noTriton	MARV entry inh
COc1cc(-c2nnc(SCc3cc(=O)oc4cc(O)c(O)cc34)o2)cc(OC)c1OC	-21%	5%	-14%	-6%	6.3µM*	-6%	-4%	-25%
O=C(CC1C(=O)NCCN1Cc1ccc(Cl)c(F)c1)NCCc1cccnc1 (configuration not stated)	-13%	1%	x	-20%	0%	-5%	x	12%[46.1 µM]
COc1ccc(NC(=O)CCN2C(=O)c3ccccc3S2(=O)=O)cc1	-3%	12%	3.4%	2%	x	-16%[14.3 µM]	0%	0%
O=C(CN1CCN(C2CCS(=O)(=O)C2)CC1)N1N=C(c2ccc(Cl)cc2)CC1c1ccco1 (configuration not stated)	-4%	x	x	-5%	1%	-17%	x	5%

Assay outcomes from PubChem.
